# Screening results deposited in PubChem by National Center for Advancing Translational Sciences (NCATS).
# PINK1 modulator = PINK1 expression modulation. Potency, µM (top dose mostly 76.6 µM), for the others: top-dose activation (PINK1 increase), most hits filed as activators. actives 0.2% (n = 410,000). PINK1 immunofluorescence, high-content cytometry, 24 h; active = well fitted activation curve with a large enough effect; inconclusive = small, poorly fitted or top-dose-only effect; inactive = flat fitted curve, though single readings scatter; cell line not stated here;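 note: potency is the fitted concentration of half-maximal effect; % of control where 0% means no effect; nearly all actives have a fitted effect of over 65% in size; a mitochondrial uncoupler was the plate control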
#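 Stable cell line treated 24 h with compounds at 5 concentrations (CCCP controls), then fixed and immunostained for PINK1 plus nuclear and cell stains; PINK1 immunofluorescence quantified by laser-scanning microplate cytometry.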
# gsp agonist = activates gsp, the McCune-Albright syndrome mutation; gsp mutant cells, cAMP HTRF, 30 min; control for the full effect not named in the record; Potency, µM (doses to about 76.9 µM), inactives show at the highest dose activation (cAMP increase), usual class: activators; actives 0.13% (n = 340,000); AID 624287; active = well fitted activation curve with a large enough effect; inconclusive = small, poorly fitted or top-dose-only effect, or another doubt; inactive = no such curve, though single readings can be large or run the other way; cell line not stated here;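 note: phosphodiesterase inhibitor Ro 20-1724 added with compounds to block cAMP breakdown; potency is the fitted concentration of half-maximal effect; nearly all actives have a fitted effect of over 60% in size; about a fifth of the inactives were tested at one dose only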
#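 Cells stably selected in G418 were plated at 2000/well, grown 16-24 hr, then given compounds in DMSO with the PDE inhibitor […] (300 uM solution added) for 30 min at 37C; cAMP was read by HTRF.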
# ClpP mod = qHTS Assay for Activators of ClpP; ATP-dependent Clp protease proteolytic subunit (Bacillus subtilis (strain 168)), P80244; purified B. subtilis ClpP, FRET peptide cleavage, 20 min; Potency, µM (titrated, usually from 57.5 µM), for the others: top-dose activity change, negative = active; actives 1.9% (n = 340,000); AID 651965, 2013; active = well fitted falling curve with a large enough effect; inconclusive = small, poorly fitted or top-dose-only effect; inactive = no such curve, though single readings can be large or run the other way; note: potency is the fitted concentration of half-maximal effect; the source files actives as falling curves though it sought activators and does not explain the sign; nearly all actives have a fitted effect of over 65% in size; many hits overshoot -100%
# Target sequence (P80244 whole entry, looked up): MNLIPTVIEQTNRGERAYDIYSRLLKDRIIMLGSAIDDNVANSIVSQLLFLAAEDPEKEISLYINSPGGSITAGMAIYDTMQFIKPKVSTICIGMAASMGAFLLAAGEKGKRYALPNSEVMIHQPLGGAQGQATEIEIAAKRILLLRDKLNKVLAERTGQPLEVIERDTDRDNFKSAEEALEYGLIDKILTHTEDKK
#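 FRET quenching reversal measured ClpP activation: 10 microg/mL B. subtilis ClpP at pH 8 with the FRET-FV decapeptide, read at 430 nm after 320 nm excitation. The 20-min minus 0-min signal was scaled between DMSO/no-enzyme wells and ADEP (5.8 microM final).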
# gsp antag = antagonizes gsp, the McCune-Albright syndrome mutation | gsp-mutant cells, cAMP HTRF, 30 min; control for the full effect not named in the record | Potency, µM (top dose mostly 76.9 µM), inactives show at the top dose activity change, negative = inhibition, most hits filed as inhibitors | actives 0.4% (n = 340,000) | AID 624288; active = falling curve of any shape with a large fitted effect; inconclusive = falling curve, mostly with a smaller effect; inactive = flat or rising curve; cell line not stated here;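 note: intracellular cAMP measured with PDE inhibitor Ro 20-1724 present during compound exposure; potency is the fitted concentration of half-maximal effect; % is set by controls: 0 for no effect and ±100 for the full control effect; nearly all actives have a fitted effect of over 65% in size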
#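 G418-selected cells were plated in DMEM/10% FBS for 16-24 h at 37C, then treated with compounds plus the PDE inhibitor […] (300 uM solution added) for 30 min at 37C. Intracellular cAMP was measured by HTRF after 30 min lysis at room temperature.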
# Menin MLL FP FL = menin-MLL binding inhibition, fluorescein peptide. Fluorescence polarization, fluorescein-MLL peptide displacement from menin. FP activity change, % at 61.4 µM. 290,000 tested, under 10 active. AID 1766; inconclusive = falling polarisation curve, or a change in total fluorescence; inactive = total fluorescence flat and polarisation flat or rising; no compound was filed as active; the % refers to the polarisation; negative = inhibition;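 note: % of control where 0% means no effect; inhibitors lower the polarisation; unlabelled MLL peptide was the positive control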
# Sfp inh = blocks B. subtilis Sfp PPTase activity; AID 1490; Biochemical Sfp PPTase activity, qHTS; Potency, µM, without a hit: max response, negative = inhibition, actives largely listed as inhibitors; actives 3.5% (n = 310,000); Q9F4F7; active = well fitted inhibition curve with a large enough effect; inconclusive = small, poorly fitted or top-dose-only effect, or another doubt; inactive = no such curve, though single readings can be large or run the other way;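 note: the enzyme is Sfp with the accession as filed and its product quenches rhodamine fluorescence; potency is the fitted concentration of half-maximal effect; 0% = enzyme reaction without inhibitor and -100% = no enzyme wells; top concentration of the series not given in the record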
#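 Step 1, compound plus 15 nM Sfp-PPTase, 15 min, room temperature. Step 2, add rhodamine-CoA (5 uM) and BHQ-2-YbbR (12.5 uM). Step 3, read 525/598 nm fluorescence at 0 and 30 min.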
# D2 ag = agonists of human D2 dopamine receptor (beta-arrestin). activation, % (concentration not given with the values). AID 624465. DiscoveRx PathHunter D2 beta-arrestin, luminescence, 90 min; 100% = 57 uM dopamine signal. actives 0.084% (n = 360,000); in the data active = activation above about 40%; inconclusive = about 15% to 40%; inactive = below about 15%; note: compound concentration not given in the record; the text of the record calls up to 30% inactive
# Target sequence (P14416 whole entry, looked up): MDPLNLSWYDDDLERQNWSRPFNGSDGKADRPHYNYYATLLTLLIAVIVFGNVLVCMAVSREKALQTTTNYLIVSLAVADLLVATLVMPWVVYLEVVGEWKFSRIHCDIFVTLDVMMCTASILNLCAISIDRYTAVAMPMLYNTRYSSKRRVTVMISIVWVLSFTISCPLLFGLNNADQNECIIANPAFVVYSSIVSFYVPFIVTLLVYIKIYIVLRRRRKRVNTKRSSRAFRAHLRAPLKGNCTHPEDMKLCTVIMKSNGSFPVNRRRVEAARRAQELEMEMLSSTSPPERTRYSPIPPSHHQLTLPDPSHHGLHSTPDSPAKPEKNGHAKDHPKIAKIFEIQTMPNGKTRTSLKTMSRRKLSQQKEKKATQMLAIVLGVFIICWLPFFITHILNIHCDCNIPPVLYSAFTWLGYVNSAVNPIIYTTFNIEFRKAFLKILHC
#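 Agonist mode: compounds alone added to overnight-plated D2 PathHunter cells for 90 min at 37 C, with 57 uM final dopamine (EC100) defining full response. Beta-arrestin recruitment detected by chemiluminescent reagent, read after 1 h at ambient temperature.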
# * marks the source's active call; other numbers are inactive results; ? = inconclusive; . = no result given; [ ] = dose if it differs, or a comment.
SMILES,PINK1 modulator,gsp agonist,ClpP mod,gsp antag,Menin MLL FP FL,Sfp inh,D2 ag
CC(C)N(C(=O)Nc1ccc2nccnc2c1)C(C)C,-1.1%,?,?,4%,-16,4%,0.7
Cc1cnc2cc(Cl)c(Cl)cc2n1,-0.3%,11%,-1.9%,8%,3.4,12%,-1.4
CCCc1cc(C(=O)Nc2cccc3ccccc23)n(C)n1,11%,4%,.,3%,-1.0,7%,-1.1
c1ccc(CCCCc2ccncc2)cc1,2.7%,-22%,.,15%,.,.,-2.3
CCCCNC(=O)[C@H](CSCc1ccccc1)N1Cc2ccccc2C1=O,-0.9%,-2%,-0.7%,-5%,3.0,-15%,-2.9
Cc1ccccc1OC/C(O)=C(\C#N)c1nc2ccccc2[nH]1,.,26%,-4.1%,-1%,3.9,15%,-0.6
O=C(Nc1cc2c(oc1=O)CCCC2=O)c1cccc(Cl)c1,24%[38.3 µM],-56%[inhibitor],-1.9%,-22%,-3.2,4%,-1.7
CCOC(=O)N1CCN(C(=O)C2CCCN(c3nc4ccc(OCC)cc4s3)C2)CC1 (centres undefined),4.1%,-23%,0.8%,-17%,0.4,-7%,-8.0
Cn1nc(CC(=O)Nc2ccc3c(c2)OCCO3)c2ccccc2c1=O,1.4%,-11%,-0.3%,-23%,1.5,13%,-0.4
CC(C)N(Cc1ccccc1)S(=O)(=O)c1ccc(-n2cccn2)cc1,0.0%,?,-1.6%,.,.,.,-1.0
COc1cc(C(=O)N(Cc2ccco2)Cc2cc3ccccc3[nH]c2=O)cc(OC)c1OC,?,9%,-26%,-11%,-0.1,21%,-1.7
COc1ccc(CCNC(=O)c2c(-c3ccccc3)noc2C)cc1OC,1.3%[38.3 µM],-68%[inhibitor],0.1%,-6%,0.7,5%,-0.1
CN(C)CCNC(=O)c1ccc(CS(=O)(=O)c2c(Cl)cccc2Cl)o1,0.9%,0%,-0.5%,3%,-3.0,13%,-6.7
O=S(=O)(c1ccc2ccccc2c1)N1CCCOC1,-2.5%,10%,-1.5%,-6%,1.4,3%,-0.5
Cc1ccc(C)c(Cn2nnc3c(=O)[nH]c(C(=O)NCC4CCCO4)nc32)c1 (centres undefined),3.6%[38.3 µM],-20%,-1.0%,-16%,-1.2,-14%,-0.8
CC[C@H](C)[C@@H]1NC(=O)[C@H]([C@@H](C)CC)NC(=O)[C@@H](CC(C)C)NC(=O)[C@H](Cc2ccccc2)NC(=O)[C@H](Cc2ccccc2)NC(=O)[C@@H]2CCCN2C(=O)[C@@H]2CCCN2C(=O)[C@H](C(C)C)NC(=O)[C@H](CC(C)C)NC1=O,7.8%,-31%,1.7%,-33%,.,.,-5.9
CCOc1ccc(CNc2ccc(S(N)(=O)=O)cc2)cc1,-2.6%,39%,.,3%,-0.5,2%,-2.7
CCOc1ccc(Nc2ncnc3c2cnn3Cc2ccccc2)cc1,0.7%[38.3 µM],-63%[inhibitor],-5.3%,-4%,1.1,?,1.9
COC(=O)c1ccc(-c2noc(CN(Cc3ccccn3)CC3CCCO3)n2)cc1 (centres undefined),0.5%,41%,-0.7%,0%,-2.4,-20%,-0.5
Cc1noc(C)c1COC(=O)c1cc(C)n(-c2ccccc2)c1C,5.1%,-21%,-1.3%,3%,-2.1,-29%,-1.3
CN(C(=O)c1cccc(NC(=O)Cc2ccc(NC(=O)C3CCCN(C(=O)C4CC4)C3)cc2)c1)C1CC1 (centres undefined),0.1%,.,-1.3%,8%,.,.,-2.9
COc1cc(C(=O)N2CCOC23CCN(Cc2ccccc2)CC3)cc(OC)c1OC,-0.6%,28%,-1.0%,.,.,.,-3.2
O=C1c2ccccc2C(=O)N1CN(C(=O)COc1ccccc1)c1ccc(F)cc1,6.4%,-2%,-0.4%,6%,0.2,10%,0.1
CCCCOC1CC(c2ccc(OCc3ccc(OC)cc3)c(OC)c2)N(C)O1 (centres undefined),-1.8%,1%,.,-19%,-0.8,-4%,6.5
CC(C)CCSc1ncnc2c1oc1nc3c(cc12)COC(C)(C)C3,2.6%[38.3 µM],-30%[inhibitor],0.9%,27%,1.1,8%,0.0
# Other structures
SMILES,PINK1 modulator,gsp agonist,ClpP mod,gsp antag,Menin MLL FP FL,Sfp inh,D2 ag
COc1cc2ccccc2cc1C(=O)Nc1ccc(N2CCOCC2)cc1,1.4%,-3%[15.4 µM],.,-9%,-1.2,11%,-0.9
Cc1cccc(NS(=O)(=O)c2ccc(NS(=O)(=O)c3cccs3)cc2)c1,0.2%,-7%[15.4 µM],.,-13%,-0.1,-6%,-1.9
CCC(=O)N1CCC1(C)C(=O)NS(=O)(=O)c1cccc(C#N)c1 (centres undefined),1.3%,.,-0.5%,.,.,.,-5.9
O=C(C1CCCN(Cc2ccccc2)C1)N1CCc2ccccc2C1 (centres undefined),?,-42%[inhibitor],0.7%,10%,0.0,-6%,-4.9
COc1ccc(/C=N/NC(=O)CC(=O)NCc2cccnc2)cc1,2.3%,-16%,0.9%,5%,3.1,-4%,-2.2
CCCCc1ccc(NC(=O)Cn2c(=O)c(N3CCCCC3)c(N)n(C)c2=O)cc1,25%,7%,?,12%,.,.,-2.5
COCCNc1nc(NCc2cccc(OC)c2OC)c2sccc2n1,0.5%,.,-17%,.,.,.,-1.7
CCCCC(CCc1ccccn1)C(=O)c1ccccc1 (centres undefined),7.6%,10%,-1.6%,-13%,.,.,-2.0
CCc1ccc(OCC(=O)NC(NC(=S)Nc2ccccc2)C(Cl)(Cl)Cl)cc1 (centres undefined),-4.0%,17%[15.4 µM],-8.7%,-10%,5.0,13%,-2.2
O=C(CCc1ccccc1)NNC(=O)c1ccccc1Cl,0.8%,-1%,.,6%,-0.3,3%,1.9
Cc1ccc(OC(C)C)c(CN(CCO)CCO)c1,0.5%,-8%,-0.5%,-1%[15.4 µM],-3.9,14%,-5.6
CC(=O)O[C@]1(C(C)=O)CC[C@H]2[C@@H]3C=CC4=CC(=O)C=C[C@]4(C)[C@H]3CC[C@@]21C,1.2%,12%[15.4 µM],-0.1%,1%,-13,-2%,1.0
CCOC(=O)N1CCN(C(=S)Nc2cccc(C)c2)CC1,1.1%,13%,1.3%,0%,0.1,14%,-1.9
CC(=O)Nc1csc2ccccc12,0.1%,-31%[inhibitor],1.3%,11%,-2.9,15%,-2.7
O=C(NCc1ccc(Cl)cc1Cl)c1ccccn1,12%[38.3 µM],-45%[inhibitor],-5.9%,8%,8.7,-9%,-4.0
Cc1cccc(C(=O)OCC(=O)c2csc(N3CCCCC3)n2)c1[N+](=O)[O-],-0.5%,10%,-7.4%,-19%,.,.,-0.6
CCCCOc1ccc(C(=O)NCC(=O)N(C)CC(=O)Nc2ccc(N3CCOCC3)cc2)cc1,-1.0%,3%,-1.1%,-3%,.,.,1.5
CC1(C)CC(=O)CC(C2(O)C(=O)N(Cc3ccccc3)c3ccccc32)O1 (centres undefined),9.3%,-36%[inhibitor],-1.7%,9%,-1.7,19%,-1.2
O=C(NCC1CCN(S(=O)(=O)c2ccccc2)CC1)Nc1ccc(F)cc1F,1.5%,42%,.,-14%,1.1,5%,-1.9
CCOC(=O)c1c(NC(=O)C2CCCN2S(=O)(=O)c2cccc3nsnc23)sc(C)c1C (centres undefined),6.4%,3%,-0.5%,4%,.,.,0.0
COc1ccc(-c2c(C)n([O-])c(C)c(-c3ccccc3)[n+]2=O)cc1OC,9.9%[38.3 µM],1%,-7.7%,6%,1.7,-1%,-1.4
CCOC(=O)c1ccc(NC(=O)Cn2nc(C)c3ccccc3c2=O)cc1,-0.5%,5%,-0.8%,-1%,4.6,-4%,0.8
COc1ccccc1NS(=O)(=O)CC12CCC(CC1=O)C2(C)C (centres undefined),1.6%[38.3 µM],-1%,1.5%,2%,1.5,1%,0.6
O=C(CN1CCN(Cc2ccc(Cl)cc2)C1=O)NCc1cccs1,-0.1%,12%,-0.5%,5%,0.3,12%,-2.6
CCOC(=O)c1ccc(NC(=S)N2CCN(c3ccccn3)CC2)cc1,1.6%,10%[15.4 µM],0.2%,0%,0.9,11%,5.3

# Next section; the last 2 above are carried over.
SMILES,PINK1 modulator,gsp agonist,ClpP mod,gsp antag,Menin MLL FP FL,Sfp inh,D2 ag
O=C(CN1CCN(Cc2ccc(Cl)cc2)C1=O)NCc1cccs1,-0.1%,12%,-0.5%,5%,0.3,12%,-2.6
CCOC(=O)c1ccc(NC(=S)N2CCN(c3ccccn3)CC2)cc1,1.6%,10%[15.4 µM],0.2%,0%,0.9,11%,5.3
CSc1nnc2n(C)c3c(c(=O)n12)C1(CCCC1)Cc1ccccc1-3,-3.6%[38.3 µM],16%,28µM*,9%,2.8,?,-1.8
N=C1/C(=C\c2ccc(Br)o2)C(=O)N=C2SC(CC(=O)N3CCOCC3)=NN12,0.4%,?,-4.0%,6%,?,2%,-2.6
C=C(C1=CCN(S(=O)(=O)C(C)(C)C)[C@H]1CCO)c1ccccc1,-0.2%,.,0.9%,-2%,.,.,0.2
COc1cc2cc(C(c3nnnn3C3CCCCC3)N(C)C3CCCCC3)c(=O)[nH]c2cc1OC (centres undefined),1.5%[38.3 µM],-15%,?,-2%,22,-23%,-4.6
CCOc1ccc(Cc2c(Cl)nc(SC)nc2OC)cc1,4.1%,6%,-0.4%,-21%,1.5,-15%,3.2
CN(C(=O)C1CCOC1)c1nnc(-c2cnccn2)s1 (centres undefined),-1.3%,-13%,?,4%,3.4,0%,-3.9
NCCCNC(=O)c1ccc(/C=N/O)nc1,1.9%,19%[15.4 µM],.,.,0.7,71µM*,2.1
Cc1cc(C)n(-c2ccc(Cl)c(C(=O)OCC(N)=O)n2)n1,5.6%[38.3 µM],?,0.3%,4%,1.8,-8%,-2.9

# Structural class, the entries above containing fluorine.
SMILES,PINK1 modulator,gsp agonist,ClpP mod,gsp antag,Menin MLL FP FL,Sfp inh,D2 ag
O=C1c2ccccc2C(=O)N1CN(C(=O)COc1ccccc1)c1ccc(F)cc1,6.4%,-2%,-0.4%,6%,0.2,10%,0.1
O=C(NCC1CCN(S(=O)(=O)c2ccccc2)CC1)Nc1ccc(F)cc1F,1.5%,42%,.,-14%,1.1,5%,-1.9
